Screening data deposited in PubChem BioAssay by Fisher Drug Discovery Resource Center.
NPYLR7 agonist: mosquito NPYLR7 agonism. actives 0.15% (n = 270,000). AID 1259423. HEK293T NPYLR7/Galpha15, GCaMP6s calcium fluorescence. activation, % at 10 µM; in the data active means activation above about 40%;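 further: 0% = vehicle and 100% = reference agonist at the receptor; some compounds past the cut are filed as inactive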
NPYLR7 agonist max-min: also measured in NPYLR7 agonist; calls as there; activation, %; measured here: Max-Min RFU normalised activation; some inactives read as strong as hits;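 span of the calcium signal over five minutes; 0% = vehicle and 100% = native peptide agonist; compound fluorescence can raise it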
Numbers without * were called inactive; & = joins results of further samples. A portion of the library. The share of hits here may be higher or lower than overall.

mol	NPYLR7 agonist	NPYLR7 agonist max-min
Cc1nc2ccc(C(=O)N3CCNC(C(=O)O)C3)cc2[nH]1 (configuration not stated)	27	7
Cn1nnnc1SCC(=O)c1c(N)n(C2CC2)c(=O)[nH]c1=O	5	8
CCCc1cc(CN(C)C(=O)CC2(c3ccccc3Cl)CC(=O)N(CCN(C)C)C2=O)[nH]n1 (configuration not stated)	25	10
Cc1cc(C)c(CN2CCC3(CCNC(=O)CC3)CC2)c(C)c1	-6	-9
Cc1ccccc1/C=C1\SC(=Nc2ccccc2Cl)NC1=O	-5	-15
Clc1ccc(-c2noc(COc3ccc4c(c3)OCO4)n2)cc1	3	0
O=C(CS(=O)Cc1c(F)cccc1Cl)N1CCN(c2ccc(F)cc2)CC1 (configuration not stated)	4	4
Cc1ccc2c(c1)c1nc3ccccc3nc1n2CC(=O)OC(C)C	6	10
C#CCN(CC=C)Cc1nc(-c2ccccc2OCC)oc1C	19	1
Cc1nnsc1C(=O)N[C@H]1CCN(C(=O)COCC(=O)O)[C@H](C(=O)N[C@H](Cc2ccccc2)C(N)=O)C1	-8	-14
CCn1ccnc1CNc1ccnc(SC)n1	5	1
CCCN(C(=O)Nc1ccccc1OC)C(CC)c1nc2ccccc2c(=O)n1-c1ccc(C)cc1C (configuration not stated)	-1	2

Already shown: 2 of the compounds above.
mol	NPYLR7 agonist	NPYLR7 agonist max-min
Cc1nc2ccc(C(=O)N3CCNC(C(=O)O)C3)cc2[nH]1 (configuration not stated)	27	7
Cn1nnnc1SCC(=O)c1c(N)n(C2CC2)c(=O)[nH]c1=O	5	8

Following part:
mol	NPYLR7 agonist	NPYLR7 agonist max-min
COc1cc(NC(=O)c2cc3ccccc3oc2=O)c(OC)cc1Cl	7&-4	0&-8
O=C(CSc1nc(=O)n(Cc2ccncc2)c2c1CCC2)Nc1ccccc1[N+](=O)[O-]	0	-2
COc1ccc(C=NNC(=O)Cc2cccs2)c(OC)c1OC	22	11
CCOC(=O)C1CCCN(c2nc(Cc3cccc(OC)c3)ns2)C1 (configuration not stated)	-4	-2
CCOc1ccc(-n2nnc3c(=O)n(CC(=O)N4CCC(C)CC4)cnc32)cc1	10	13
CCOC(=O)c1c(NC(=O)c2ccc(Cl)cc2)sc(C(=O)Nc2ccccc2F)c1C	-15	-9
COc1ccccc1C1N(c2nccs2)C(=O)C2CCCN21 (configuration not stated)	2	-1
Cc1cc(C)c2nc(N(Cc3ccccn3)C(=O)c3cccc(S(C)(=O)=O)c3)sc2c1	-8	-10
CC(C)n1cc(C(=O)N2CCN(C(=O)CC3CCCC3)CC2)c2nn(-c3ccccc3)c(=O)c-2c1	-5	-7
COc1ccc(C)c2sc(N(CCCN(C)C)C(=O)CS(=O)(=O)c3ccc(Cl)cc3)nc12	-1	-5
COc1cccc(-c2nnc(SCc3ccc(C(=O)NCc4cccc(C(F)(F)F)c4)cc3)n2-c2ccccc2F)c1	19	17
CC1CCc2c(sc3ncnc(SCc4nc5ccsc5c(=O)[nH]4)c23)C1 (configuration not stated)	-2	-7
On1c(-c2cccc(F)c2)nc2c1CCc1nonc1-2	7	5
Cc1nn2c(N3CCOCC3)c3c(nc2c1-c1ccccc1)CCC3	4	2
Cc1noc(C)c1C(=O)NCCc1ccc(Cl)cc1	7	0
COCCCN(CC(=O)N(CCc1c[nH]c2ccccc12)Cc1ccc(Cl)c(Cl)c1)C(=O)c1cccc(OC)c1	-1	6
O=C(NC1C[C@@H]1c1ccccc1)c1cncn1-c1cccc(-c2ccc(Oc3ccccc3)cc2)c1 (some centres not stated)	4	2
COc1cc(OC)nc(C(NC(=O)C2CCN(Cc3ccc(N(C)C)cc3)CC2)c2ccc(Cl)cc2)n1 (configuration not stated)	-2	-9
CC1CC(NC(=O)COC2CCCC2)CN1C1CC1 (configuration not stated)	2	0
CCC(=O)Nc1cccc(C(=O)N(CC)Cc2noc(C3CCC3)n2)c1	-1	-6
CN1C[C@H](NC(=O)c2ccc3[nH]ccc3c2)C[C@H]1CO	0	1
O=C(c1cc(COc2cccc3cccnc23)on1)N1CCN(C2CCCC2)CC1	6	3
Cc1c(C(=O)N(CC(=O)Nc2ccc(F)cc2)C(C)C)cnn1C	2	0
CC(C(=O)N(C)Cc1nc2ccccc2s1)N1CCCC1c1ccsc1 (configuration not stated)	1	-3
CCC(C(=O)NC1CCN(c2ccccc2C(=O)N2CCc3ccccc3C2)CC1)c1ccccc1 (configuration not stated)	15	11
Cc1ccnc(NCC2CCNC2)c1 (configuration not stated)	-12	-10
CCC(C)N(Cc1csc(COc2ccccc2C(C)C)n1)C(=O)c1ccccc1OC (configuration not stated)	-9	5
COc1cc(C)c(C(C)NC(=O)c2oc3c(c2C)C(=O)CCC3)cc1OC (configuration not stated)	5	5
CCc1nc2c(OCCOc3ccc(F)cc3)cccn2c1N(C)C(=O)c1cccc(OC)c1	8	-6
CCOc1ccc2[nH]c(=O)c(CN3CCC[C@H]3COC)cc2c1	8	7
CCOC(=O)N1CCN(CC(=O)c2c[nH]c3ccccc23)CC1	13	8
Cc1ccc(NC2(C(=O)NCCCc3c(C)n[nH]c3C)CCCC2)cc1	21	6
CCOC(=O)CCc1c(C)nc2ncnn2c1N1CCN(C(=O)COCc2ccccc2)CC1	19	6
CC(C)CC(=O)N1CCC(c2n[nH]c(=S)n2C(C)C)CC1	-2	17
C=CC(=O)NCC1Cc2cccc(F)c2O1 (configuration not stated)	7	12
Cc1nc2cc(F)cc(C(=O)N3CCN(CCO)CC3)c2nc1C	-1	-2
Cc1ccccc1C(NC(=O)C1CCN(CCOc2ccccc2)CC1)c1ccsc1 (configuration not stated)	-11	-16
O=C(c1ccc(CSc2nc(-c3ccccc3)cc(N3CCN(c4ccccc4F)CC3)n2)cc1)N1CCCC1	11	15
CCCCN(Cc1ccco1)Cc1cccc2c1OCO2	-2	-6
COc1ccc(-n2nc(C(C)(C)C)cc2NC(=O)c2ccc(F)c(C(F)(F)F)c2)cc1	24	14
C=CCNC(=O)C(NC(=O)c1ccc(OC)cc1)C1CCN(C(=O)c2ccc(Cl)cc2)CC1 (configuration not stated)	-3	5
O=C(O)c1cnn(-c2ncccc2Cl)c1C(F)(F)Cl	8	7
Cc1nc(SCC(=O)c2ccc(Br)cc2)c(C#N)c(C)c1C	-1	-6
CS(=O)(=O)c1ccc(CN2CCC3(CC2)CC(=O)c2ccc(N4CCCC4)cc2O3)cc1	3	10
COCC(Nc1ncc(Br)cn1)c1ccc(C)o1 (configuration not stated)	6&-5	1&-5
COc1ccc(C(=O)Nc2nc(C34CC5CC(CC(C5)C3)C4)cs2)cc1	-4	-3
Cc1cc(Br)ccc1NC(=O)CNC(=O)CCN1C(=O)COc2ccccc21	0	0
CCC(C)c1ccc(S(=O)(=O)N2CC=C(c3c[nH]c4ncccc34)CC2)cc1 (configuration not stated)	20	29
COc1ccc(CNC(=O)CCC2CCCN(C(=O)C3CCOCC3)C2)c(OC)c1 (configuration not stated)	4	1
C=C(C)Cn1c(CC(C)C)nc2ccccc21	0	16
COc1cc(OC)c(OC)cc1C=Nn1c(-c2ccc(Cl)cc2)n[nH]c1=S	5	4
O=C1CCC(C(=O)N2CCC(c3ccncc3)CC2)CN1CCN1CCOCC1 (configuration not stated)	6	6
CCCCN(Cc1cccn1C)C(=O)CN(CCCOCC)C(=O)COc1ccc(Cl)cc1	4	6
Cc1ccc(/C=C/C(=O)N2CCC(CNC(=O)OC(C)(C)C)CC2)o1	-1	-1
CC(=O)Nc1ccc(F)c(C(=O)NCc2ccnc(OCC(F)(F)F)c2)c1	14	10
CC(=O)NC1=NN(C(C)=O)C2(S1)C(=O)N(CCOc1ccccc1C)c1ccccc12 (configuration not stated)	5	5
O=C(c1cnco1)N1CC[C@@H](c2ccc3ccccc3c2)[C@H](O)C1	2	12
c1ccc(Sc2c(-c3ccccc3)nc3sccn23)cc1	6	7
CCN(c1cc(-c2ccc(CN3CCOCC3)cc2)cc(C(=O)NCc2c(C)cc(C)[nH]c2=O)c1C)C1CCOCC1	6	2
Cc1cc(C)c2sc(-c3ccccc3)cc(=O)c2c1	1	0

Other compounds follow:
mol	NPYLR7 agonist	NPYLR7 agonist max-min
Cc1cnc(CN(C)C(=O)C(C)(C)NC(=O)c2cccs2)[nH]1	10	-4
O=C1CSC(=O)N1CC(O)COc1ccc(OCC(O)CN2C(=O)CSC2=O)cc1 (configuration not stated)	4	2
COC(=O)CCn1cnc(-c2ccccc2)c1-c1ccc(NC(C)=O)cc1	19	12
COc1ccc(C2c3ccsc3CCN2CC(=O)N2CCN(C(=O)COCc3ccccc3)C(C)C2)cc1 (configuration not stated)	7	0
Cc1nn(C)c(Cl)c1CN(Cc1cccnc1)CC1CCN(C2CCCC2)CC1	19	9
Cc1nn(-c2ccccc2)c(N2CCN(C)CC2)c1CN(CCC(C)C)C(=O)c1ccccc1Br	-2	6
CC(=O)Nc1cccc(Nc2nccc3c2cc(-c2ccsc2)n3C)c1	-6	-10
CN1CCN(c2nc(-c3ccccc3)nc3c2CN(C(=O)Nc2ccc(F)c(F)c2)CC3)CC1	22	21
COCc1nc(N2CCNC(c3ccccc3)C2)c2cnn(C)c2n1 (configuration not stated)	7	2
CC(=O)c1[nH]c(C)c(C(=O)N2CCCC(CO)(CCc3ccccc3)C2)c1C (configuration not stated)	0	-1
COc1ccc(Nc2nc(-c3cc4ccccc4oc3=O)cs2)c(OC)c1	-5	-7
O=C1OC(CCl)CN1Cc1ccc(Cl)cc1 (configuration not stated)	11	8
CCOC(=O)c1scc(-c2ccc(C)cc2)c1S(=O)(=O)N1CCN(c2ccccc2)CC1	12	10
Cc1c[nH]c(CN2CCC(Cc3cccc(C(=O)O)c3)C2)c(C)c1=O (configuration not stated)	-1	-3
NC(Cc1ccccc1)C(=O)Nc1nnc(-c2cccc(Br)c2)s1 (configuration not stated)	-6	-17
CNC(=O)Cc1ccc(-c2ccc(-c3ccn[nH]3)cc2)cc1	0	-5
Cc1nn(-c2nc(C)c(C)c(=O)[nH]2)c(C)c1CCC(=O)Nc1cccnc1	10	1
Cc1cc(=O)c(C(=O)Nc2cccc(C(=O)NC3CC3)c2)nn1-c1ccccc1	3	2
CC(Sc1nc2ccccc2s1)C(=O)N/N=C\c1ccccc1Cl (configuration not stated)	3	10
COc1ccc(S(=O)(=O)Oc2cccc(CNC3CC3)c2)cc1	8	8
CS(=O)(=O)c1ccc(-c2csc(-c3cccc(Cl)c3)n2)cc1	5	2
Cc1nc(SCC(=O)N2CCCCC2C)c2c3c(sc2n1)CCC3 (configuration not stated)	1	3
CCN(CC)c1ccc(CN(C(=O)CC(C)(C)C)C2CC2)c(OS(=O)(=O)CC)c1	8	3
Cc1c(Br)c(C(F)(F)F)nn1CC(=O)Nc1ccccc1C(F)(F)F	-4	-3
Fc1ccccc1C1CC(c2ccc(Br)cc2)=Nc2nc(-c3ccccc3)nn21 (configuration not stated)	-1	-2
Cc1cccc(NC(=O)CC(=O)N2CCc3c(nc(N(C)C)[nH]c3=O)C2)c1	27	12
CC1=CC[C@@H]2CN(C(=O)c3cc(C(C)C)on3)C[C@@H]2C1	4	-1
Cc1ccc(F)c(C(=O)N(Cc2ccco2)Cc2c(F)cccc2Cl)c1Cl	-9	-13
COC(=O)c1ccnc(NC(=O)c2cc3cccc(F)c3o2)c1	9	6
C=c1oc(C)cc1=C1NN=C(CCC(=O)NC(C)Cn2ccc3ccccc32)O1 (configuration not stated)	3	-1
O=C(NCC1(c2cccc(F)c2)CCOCC1)c1cnnn1-c1ccccc1	-4	-8
CCN(CC)CC(=O)N1N=C(c2ccc(Cl)cc2)CC1c1ccco1 (configuration not stated)	-2	11
COCCCN(CC(=O)N(Cc1ccc(F)cc1)Cc1cccs1)S(=O)(=O)/C=C/c1ccccc1	-8	-16
CCOC(=O)C1=C(C)NC2=C(C(=O)CC(c3ccc(Cl)cc3)C2)C1c1ccc(N(CC)CC)cc1 (configuration not stated)	-2	-6
O=C(Nc1c[nH]c2ccccc12)N1CCCCCC1	3	-4
Cc1cccc(C(=O)NCc2cccc(C(F)(F)F)c2)n1	10	5

Profiles as entered above.
`Fc1ccccc1C1CC(c2ccc(Br)cc2)=Nc2nc(-c3ccccc3)nn21` (configuration not stated) is listed with NPYLR7 agonist: -1; NPYLR7 agonist max-min: -2
`Cc1cccc(NC(=O)CC(=O)N2CCc3c(nc(N(C)C)[nH]c3=O)C2)c1` is listed with NPYLR7 agonist: 27; NPYLR7 agonist max-min: 12
`COCCCN(CC(=O)N(Cc1ccc(F)cc1)Cc1cccs1)S(=O)(=O)/C=C/c1ccccc1` is listed with NPYLR7 agonist: -8; NPYLR7 agonist max-min: -16

(listing goes on)
mol	NPYLR7 agonist	NPYLR7 agonist max-min
CN(C)C(=O)c1nn(Cc2ccccc2)c2c1CN(Cc1nc3ccccc3n1C)CC2	15	6
O=C1N[C@@H](Cc2ccccc2)C(=O)N(CC(=O)N(CCO)Cc2ccccc2)c2ccccc21	7	6
FC(F)(F)c1nc(N2CCc3ccccc3C2)c2ccccc2n1	5	8
Cc1cccc(-c2nc3ccc(Cl)cn3c2NC2CCCCC2)c1	3&-2	7&7
Cc1ccc(CN2CCC2(C)C(=O)Nc2cccc(Oc3ccccc3)c2)cc1 (configuration not stated)	-1	-4
COc1ccc2oc(=O)c(-c3csc(Nc4ccccc4)n3)cc2c1	-6	-8
